GLA spleen mod = inhibits or activates alpha-galactosidase in human spleen homogenate | P06280 | human spleen homogenate, 4MU-alpha-Gal fluorescence, 40 min | Potency, µM (highest dose often 80 µM), for inactives: at the top dose activity change, negative = inhibition, actives largely listed as inhibitors | 240,000 compounds, 0.008% hits | AID 2107;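 also: 0% = enzyme with vehicle and -100% = no enzyme basal signal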
Target sequence (P06280 32-429 limits assumed): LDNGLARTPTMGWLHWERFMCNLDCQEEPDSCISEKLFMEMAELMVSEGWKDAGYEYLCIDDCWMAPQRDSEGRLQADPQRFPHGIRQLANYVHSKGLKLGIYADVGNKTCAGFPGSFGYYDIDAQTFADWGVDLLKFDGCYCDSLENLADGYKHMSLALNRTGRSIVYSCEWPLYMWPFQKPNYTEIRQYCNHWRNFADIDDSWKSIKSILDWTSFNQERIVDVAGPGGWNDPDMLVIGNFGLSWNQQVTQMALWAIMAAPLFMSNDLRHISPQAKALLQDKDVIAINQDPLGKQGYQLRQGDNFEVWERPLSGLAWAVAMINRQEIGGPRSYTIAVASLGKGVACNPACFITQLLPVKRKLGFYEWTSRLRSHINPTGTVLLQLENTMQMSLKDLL
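Human spleen homogenate (1 ug) as enzyme source, 4-methylumbelliferyl-alpha-D-galactopyranoside 1 mM final, citrate/phosphate pH 5.0 with 0.01% Tween-20. Compounds 40 min at 37C, NaOH/glycine stop; fluorescence Ex 365/Em 440, Hill-fit AC50.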
GAA spleen mod = lysosomal alpha-glucosidase (human) modulation; human spleen homogenate, 4-MU-alpha-glucoside fluorescence; Potency, µM (highest dose often 79.9 µM), without a hit: top-dose activity change, negative = inhibition, most hits filed as inhibitors; 240,000 compounds, 0.006% hits; AID 2112;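 also: 0% = enzyme with vehicle and -100% = no enzyme basal signal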
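Human spleen homogenate (1 ug) incubated with compounds and 1 mM 4-methylumbelliferyl-alpha-D-glucopyranoside in pH 5.0 citrate/phosphate buffer, 37 C, 40 min. Stopped at pH 10; 4-MU fluorescence (Ex 365/Em 440 nm); AC50 by Hill fit.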
GAA glycogen = inhibitors or activators of human alpha-glucosidase glycogen cleavage; recombinant GAA, glycogen substrate, Amplex Red glucose oxidase fluorescence; Potency, µM (series often up to 76.4 µM), without a hit: at the highest dose activity change, negative = inhibition, actives largely listed as inhibitors; 300,000 compounds, 0.38% hits;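 also: 0% = full enzyme reaction and -100% = no-enzyme basal signal; the screen sought inhibitors and activators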
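Recombinant human enzyme (4 nM); glycogen substrate; 37 C, 40 min, pH 5.0. Readout: coupled glucose oxidase/Amplex Red fluorescence.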
GAA inhib = alpha-glucosidase (human) inhibition; purified human GAA, 4-MU-alpha-glucoside fluorescence; Potency, µM (series often up to 76.9 µM), without a hit: top-dose activity change, negative = inhibition, hits mostly inhibitors; 200,000 compounds, 0.005% hits; P10253;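 also: plate controls were uninhibited enzyme wells for no effect and no-enzyme background for full effect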
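Read-out is 4-methylumbelliferone fluorescence (Ex 365/Em 440 nm) after NaOH/glycine stop at pH 10. Enzyme 4 nM, substrate 400 uM, pH 5.0 citrate buffer, 20 min room temperature; AC50 from Hill-equation concentration-response.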
GoLoco inh red = inhibitors of human Gai1-RGS12 GoLoco interaction (red fluorophore). P63096. Gai1:RGS12 GoLoco peptide FP, rhodamine, 10 min. Potency, µM (top dose mostly 61.6 µM), for inactives: top-dose activity, negative = inhibition, hits mostly inhibitors. 230,000 compounds, 0.44% hits; active = well fitted inhibition curve with a large enough effect, not every such curve was filed as active; inactive = no such curve, though single readings can be large or run the other way; also: nearly all actives have a fitted effect of over 30% in size; many of its hits are not listed in these tables
Starred values were filed as active, the others as inactive; ? = inconclusive; . = no result given; & = joins results of further samples; [ ] = dose if it differs, or a comment. Unless noted, calls follow the shape of the dose curve; as a rule, active = well fitted curve in the direction sought with a large enough effect; inconclusive = small, poorly fitted or top-dose-only effect, or another doubt; inactive = no such curve, though single readings can be large; an effect the other way counts as inactive or inconclusive. Unless noted, % is scaled to controls: 0 for no effect and ±100 for the full control effect; potency is read from the fitted curve at half-maximal effect. This is a subset (hit frequency here may not be typical).

(1) C=CCNC(=O)c1ccccc1NC(=O)COc1ccc(OC)cc1
(2) CC1C(NC(=O)/C(=N/OC(C)(C)C(=O)O)c2csc(N)n2)C(=O)N1S(=O)(=O)O (centres undefined)
(3) COCCCN1C(=O)c2[nH]nc(-c3ccccc3O)c2C1c1ccc(Cl)cc1 (centres undefined)
(4) CN(C)CCC(c1ccc(Br)cc1)c1ccccn1 (centres undefined)
(5) COc1ccc(NC(=O)CN2CCN(CC(=O)Nc3cc(OC)cc(OC)c3)CC2)cc1
(6) O=C(C1CCCCC1)N1CC(=O)N2CCc3ccccc3[C@@H]2C1
(7) CNC(=O)Oc1ccc2c(c1)C1(C)CCN(C)C1N2C (centres undefined)
(8) S=c1nc(-c2ccccc2Cl)[nH][nH]1
entry no.	1	2	3	4	5	6	7	8
GLA spleen mod	11%	-11%	2%	-4%&-8%&17%	15%	-5%[29.1 µM]	-4%	5%
GAA spleen mod	-3%	4%	-10%	3%&-5%&3%	8%	1%[29.1 µM]	1%	1%
GAA glycogen	-14%	.	-2%	-4%	-5%	.	.	-20%
GAA inhib	2%	.	0%	3%[15.4 µM]	-6%	.	.	15%
GoLoco inh red	6%	-5%	8%	-2%&1%&3%	18%	3%[21.6 µM]	2%	14%

Gathered by group: the compounds so far containing sulfur
(2) CC1C(NC(=O)/C(=N/OC(C)(C)C(=O)O)c2csc(N)n2)C(=O)N1S(=O)(=O)O (centres undefined)
(8) S=c1nc(-c2ccccc2Cl)[nH][nH]1
entry no.	2	8
GLA spleen mod	-11%	5%
GAA spleen mod	4%	1%
GAA glycogen	.	-20%
GAA inhib	.	15%
GoLoco inh red	-5%	14%

Of the compounds above, 4 contain nitrogen in an aromatic ring:
(2) CC1C(NC(=O)/C(=N/OC(C)(C)C(=O)O)c2csc(N)n2)C(=O)N1S(=O)(=O)O (centres undefined)
(3) COCCCN1C(=O)c2[nH]nc(-c3ccccc3O)c2C1c1ccc(Cl)cc1 (centres undefined)
(4) CN(C)CCC(c1ccc(Br)cc1)c1ccccn1 (centres undefined)
(8) S=c1nc(-c2ccccc2Cl)[nH][nH]1
entry no.	2	3	4	8
GLA spleen mod	-11%	2%	-4%&-8%&17%	5%
GAA spleen mod	4%	-10%	3%&-5%&3%	1%
GAA glycogen	.	-2%	-4%	-20%
GAA inhib	.	0%	3%[15.4 µM]	15%
GoLoco inh red	-5%	8%	-2%&1%&3%	14%

Next structures.
(9) CN(C)CC[C@H](c1ccc(Br)cc1)c1ccccn1
(10) CC(=O)Nc1nc(C)c(Oc2cccc(C(F)(F)F)c2)c(=O)[nH]1
(11) COc1ccc(-c2csc(Nc3ccc(S(=O)(=O)Nc4cc(C)on4)cc3)n2)cc1
(12) CC(C)NCC(O)c1cc(O)cc(O)c1 (centres undefined)
(13) COCCc1ccc(OC[C@H](O)CNC(C)C)cc1
(14) CN(C)CC[C@@H](c1ccc(Br)cc1)c1ccccn1
(15) Cc1ccc(C2=NCN(c3ccc(C(=O)O)cc3)C(=S)N2)cc1
(16) CCN(CC)CC(=O)Nc1c(C)cccc1C
entry no.	9	10	11	12	13	14	15	16
GLA spleen mod	6%[29.1 µM]	-2%	7%	-3%&0%&1%	-4%[29.1 µM]	8%	-12%	5%
GAA spleen mod	-4%[29.1 µM]	-5%	4%	-11%&-12%&1%	2%[29.1 µM]	-10%	-23%	4%
GAA glycogen	.	8%	?	-9%	.	.	-10%	2%&-6%
GAA inhib	.	-11%	-2%	.	.	.	4%	?
GoLoco inh red	0%[21.6 µM]	-2%	-4%	10%&-5%&5%	7%[21.6 µM]	5%&0%	0%	-9%

Record cards (already shown). Values in the order: GLA spleen mod, GAA spleen mod, GAA glycogen, GAA inhib, GoLoco inh red
CC(=O)Nc1nc(C)c(Oc2cccc(C(F)(F)F)c2)c(=O)[nH]1 reads -2%, -5%, 8%, -11%, -2%
COc1ccc(-c2csc(Nc3ccc(S(=O)(=O)Nc4cc(C)on4)cc3)n2)cc1 reads 7%, 4%, ?, -2%, -4%
CN(C)CC[C@H](c1ccc(Br)cc1)c1ccccn1 reads 6%[29.1 µM], -4%[29.1 µM], ., ., 0%[21.6 µM]
CC(C)NCC(O)c1cc(O)cc(O)c1 (centres undefined) reads -3%&0%&1%, -11%&-12%&1%, -9%, ., 10%&-5%&5%

The listing continues.
(17) N[C@@H]1CONC1=O
(18) O=C(CN1CCCCCC1)NCC1CCCO1 (centres undefined)
(19) N[C@H]1CONC1=O
(20) Fc1ccc(C(c2ccc(F)cc2)N2CCN(C/C=C\c3ccccc3)CC2)cc1
(21) CC1=NS(=O)(=O)c2cc(Cl)ccc2N1
(22) CC(=O)C[C@@H](c1ccccc1)c1c(O)c2ccccc2oc1=O
(23) Fc1ccc(C(c2ccc(F)cc2)N2CCN(C/C=C/c3ccccc3)CC2)cc1
(24) CC1=C(C(=O)O)N2C(=O)[C@@H](NC(=O)[C@H](N)c3ccccc3)[C@H]2SC1
entry no.	17	18	19	20	21	22	23	24
GLA spleen mod	-2%	11%	11%	-2%	-2%	9%	3%&0%&13%&14%&4%	6%&-7%
GAA spleen mod	3%	-8%	5%	9%	3%	4%	-5%&4%&-7%&-2%&6%	1%&-2%
GAA glycogen	0%	-10%	.	.	3%	.	-4%	-15%
GAA inhib	-1%[15.4 µM]	4%	.	.	-3%[15.4 µM]	.	?	-5%[15.4 µM]
GoLoco inh red	16%	-8%	4%	-2%	-5%	.	8%&12%&1%&3%&5%	-9%&7%

(25) CN1CCN(CC(=O)N2c3ccccc3C(=O)Nc3cccnc32)CC1
(26) CC(C)NCC(O)c1ccc(O)c(O)c1 (centres undefined)
(27) CN1CCN(C(=O)c2ccc(NS(=O)(=O)c3ccccc3)cc2)CC1
(28) CSc1ncccc1C(=O)N1CCCC(C(=O)c2ccc3ccccc3c2)C1 (centres undefined)
(29) OC(Cn1cncn1)(Cn1cncn1)c1ccc(F)cc1F
entry no.	25	26	27	28	29
GLA spleen mod	-4%	-4%&-1%&-8%&0%&-9%	-3%	-4%	16%
GAA spleen mod	-3%	5%&3%&8%&-11%&7%	-3%	-13%	13%
GAA glycogen	1%	?	-9%	-10%	.
GAA inhib	2%[15.4 µM]	.	-1%	-14%	.
GoLoco inh red	10%	-8%&7%&5%&6%&-4%	0%	11%	2%

From PubChem BioAssay
